# Screens deposited in PubChem BioAssay by several laboratories.
# ugtP null kill = compounds lethal to S. aureus RN4220 ugtP deletion mutant. OD600 growth, 16 h; some inactives read as strong as hits. growth inhibition, % (test concentration not listed). actives 0.54% (n = 330,000). AID 1259309;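 active means z-score under -3 and OD600 up to 0.15 on both plates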;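 further: plate controls were untreated wells for no effect and antibiotic for full effect; wells of about 80 µL received 100 nL stock; the first replicate is given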
# Sa RN4220 lethal = S. aureus RN4220 growth inhibition; inhibition, % (concentration not given with the values); OD600, 16 h; AID 1259311; actives 0.33% (n = 330,000);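 active means z-score of -3 or lower and OD600 up to 0.18 on both plates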;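 further: plate controls were untreated cells for no effect and reference antibiotic for full effect; stock transfer was 100 nL into about 80 µL; one replicate is shown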
# PrP UTR inh = suppresses PrP 5' UTR mRNA reporter expression; cell-based PrP 5' UTR mRNA reporter, plate reader; inhibition, % (test concentration not listed); actives 0.35% (n = 340,000); AID 488862;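 active means every replicate at 50% or more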;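 further: 0 = median of the neutral control wells; tested in H4 reporter cells; numbers are from one replicate; inactives centre near -14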
# Bead autofluor = compound fluorescence in toxin protease inhibitor counterscreen. compound autofluorescence counterscreen, microsphere flow cytometry; stronger effect = higher value. fluorescence intensity (test concentration not listed). actives 3.1% (n = 360,000);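 active means at least 3 SD above the mean of all compounds, about 16000 in these data; inconclusive means too few beads counted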;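 further: 100 nL of 1 mM stock went into each well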
# Mtb hypoxia inh = reduces hypoxia-regulated biosensor signal in M. tuberculosis | M. tuberculosis hypoxia-regulated fluorescent reporter, fluorescence | actives 0.1% (n = 300,000) | fluorescence inhibition, % (test concentration not listed);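 active means 35 to 45% if threefold the growth effect, above 45% if 1.5-fold the growth effect; inactive means the rest, general growth blockers included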;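 further: wells of about 50 µL received 100 nL stock; 0% = vehicle wells and 100% = reference inhibitor wells; whole bacteria with a GFP reporter of the hypoxia response; strong numbers were not always called active; many hits fall short of the cut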
# BJeLR viability = kills HRASV12-expressing BJeLR cells | BJeLR (HRASV12) viability, CellTiter-Glo ATP luminescence, 48 h; reference of the scale not given here | inhibition, % (no concentration beside the values) | actives 0.17% (n = 300,000) | AID 1554;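 active means replicate mean above 50%; inconclusive means above 50% but judged a plate artefact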;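 further: 50 nL library stock added to about 25 µL; numbers are from one replicate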
# Mtb hypoxia inh growth = second read-out of Mtb hypoxia inh, no call of its own (marks repeat the call); growth inhibition, %; measured here: M. tuberculosis growth (absorbance);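 0% = vehicle and 100% = reference antibiotic; read after six days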
# * marks the source's active call; other numbers are inactive results; ? = inconclusive; nt = not tested or not shown; & = joins results of further samples.
SMILES,ugtP null kill,Sa RN4220 lethal,PrP UTR inh,Bead autofluor,Mtb hypoxia inh,Mtb hypoxia inh growth,BJeLR viability
Cc1cc(=O)c(C(=O)O)nn1-c1ccccc1C(F)(F)F,7,-0.2,-18,3477,14,11,-4
CC(=O)Oc1ccc([N+](=O)[O-])cc1N1C(=O)c2ccccc2C1=O,6,-1.1,-7,2078,6,4,5
O=C(O)c1c2c(nc3ccccc13)CCCCC2,3,3.3,-23,11201,7,3,-4
COc1ccc2nc(N(CCN(C)C)C(=O)c3ccc(C(=O)c4ccccc4)cc3)sc2c1,3,2.4,-16,nt,3,-2,5
COC(=O)c1cc(=O)nc2sc3ccccc3n12,6,6.9,1,3421,4,0,1
COC(=O)C1(CCSC)NC(c2ccco2)C2C(=O)N(C)C(=O)C21 (stereo not given),5,0.7,-10,3334,0,0,-1
COc1cccc(Sc2cc(N3CCOCC3)nc(-c3ccccc3)n2)c1,15,19,-29,2842,2,3,0
Cc1ccc(N2C(=O)CC(Cc3cc(C)cc(C)c3)C2=O)cc1 (stereo not given),5,9.7,-17,4208,4,3,0
Cc1ccc(Nc2c(F)c(F)c(F)c(F)c2C(=O)O)cc1,-4,4.4,-19,4436,-3,8,1
CC1CC(NS(=O)(=O)c2cc3c4c(c2)CCN4C(=O)CC3)CC(C)(C)C1 (stereo not given),2,4.3,-18,5049,-4,9,8
CCOc1ccc(C(=O)CCC(=O)Nc2ccccc2C)cc1,6,3.8,-14,3711,4,9,-1
O=C(CN1C(=O)NC2(CCCc3ccccc32)C1=O)NCc1ccc(Cl)cc1Cl (stereo not given),-5,-1.3,-12,6139,1,0,9

# The last six entries of the part above lead into the next:
SMILES,ugtP null kill,Sa RN4220 lethal,PrP UTR inh,Bead autofluor,Mtb hypoxia inh,Mtb hypoxia inh growth,BJeLR viability
COc1cccc(Sc2cc(N3CCOCC3)nc(-c3ccccc3)n2)c1,15,19,-29,2842,2,3,0
Cc1ccc(N2C(=O)CC(Cc3cc(C)cc(C)c3)C2=O)cc1 (stereo not given),5,9.7,-17,4208,4,3,0
Cc1ccc(Nc2c(F)c(F)c(F)c(F)c2C(=O)O)cc1,-4,4.4,-19,4436,-3,8,1
CC1CC(NS(=O)(=O)c2cc3c4c(c2)CCN4C(=O)CC3)CC(C)(C)C1 (stereo not given),2,4.3,-18,5049,-4,9,8
CCOc1ccc(C(=O)CCC(=O)Nc2ccccc2C)cc1,6,3.8,-14,3711,4,9,-1
O=C(CN1C(=O)NC2(CCCc3ccccc32)C1=O)NCc1ccc(Cl)cc1Cl (stereo not given),-5,-1.3,-12,6139,1,0,9
CC(C(=O)N(C)Cc1ccccc1)N1CCN(C/C=C/c2ccccc2)CC1 (stereo not given),15,5.2,-14,?,9,7,2
CCCCn1c(N)c(N(CCC(C)C)C(=O)C2CC(=O)N(CCc3ccc(OC)c(OC)c3)C2)c(=O)[nH]c1=O (stereo not given),11,3.4,-11,3354,-10,4,2
O=C(Sc1cccc2cccnc12)c1ccccc1Br,nt,nt,29,5949,nt,nt,97*
CN(C)CCCN(C(=O)C1=COCCO1)c1nc2ccc(Br)cc2s1,-5,-14,-14,6818,14,14,5
COC(=O)c1sc(N)c(C(=O)OC)c1CSc1nnc(-c2ccccc2Cl)n1C,2,2.0,nt,7711,2,10,-5
O=C(COc1ccccc1/C=C1\SC(=S)NC1=O)Nc1ccc(F)cc1,48,64,-48,4218,11,-9,nt
COC(=O)c1ccc(NC(=O)CN(c2ccc3c(c2)OCO3)S(C)(=O)=O)cc1,10,3.7,-4,2082,2,4,2
CCN(CC)CCCNC(=O)c1cc(Cl)c(NC(=O)C2=C(C)OCCS2)cc1OC,13,2.7,-4,3819,6,9,0
COc1cc(/C=C/C(=O)O)cc(S(=O)(=O)Nc2ccc3c(c2)OCO3)c1OC,2,3.4,-10,5165,14,15,6
Cc1ccc(C)c(NS(=O)(=O)c2cc(C(=O)NCCSC3CCCCC3)ccc2C)c1,-19,12,-7,8323,13,4,2
CCCCSCCCNC(=O)c1ccc2c(c1)N(CC)C(=O)c1ccccc1S2=O (stereo not given),0,-4.8,-14,3361,4,8,-7
CCOc1ccc2c(C)nc(NC3=NC(C)(C)C=C(C)N3)nc2c1,4,2.6,-9,4692,nt,nt,-19

# Reprinted from the part before: 4 compounds, followed by the next part.
SMILES,ugtP null kill,Sa RN4220 lethal,PrP UTR inh,Bead autofluor,Mtb hypoxia inh,Mtb hypoxia inh growth,BJeLR viability
COc1cc(/C=C/C(=O)O)cc(S(=O)(=O)Nc2ccc3c(c2)OCO3)c1OC,2,3.4,-10,5165,14,15,6
Cc1ccc(C)c(NS(=O)(=O)c2cc(C(=O)NCCSC3CCCCC3)ccc2C)c1,-19,12,-7,8323,13,4,2
CCCCSCCCNC(=O)c1ccc2c(c1)N(CC)C(=O)c1ccccc1S2=O (stereo not given),0,-4.8,-14,3361,4,8,-7
CCOc1ccc2c(C)nc(NC3=NC(C)(C)C=C(C)N3)nc2c1,4,2.6,-9,4692,nt,nt,-19
Cc1ccc(/C=C2\SC(=S)N(c3cccnc3)C2=O)cc1,5,2.6,-37,4194,14,13,1
CC(=O)OCC(=O)C1CCC2C3CCC4=CC(=O)C=CC4(C)C3CCC12C (stereo not given),-1,-0.1,-1,3799,2,-1,nt
CC1(C)CC(=O)C(CC(=O)Nc2cc(C(F)(F)F)ccc2Cl)C(=O)C1,-2,15,-30,4371,0,12,-4
Cc1nn(-c2ccccc2)c(C)c1NC(=O)COc1ccc([N+](=O)[O-])cc1,5,7.0,-1,7852,0,-1,-4
C=CCN(c1ccccc1)S(=O)(=O)c1cccc(C(=O)NC2CCC(O)CC2)c1 (stereo not given),-6,3.6,-15,?,-9,2,-2
CN1CCN(CC(=O)Nc2ccc(Cl)cc2Cl)CC1,-1,-5.6,-16,10143,4,0,0
N=C1C(=O)OCC1c1ccccc1NC(=O)c1ccc(F)cc1 (stereo not given),-5,5.5,-26,8252,13,11,-6
CC1CCCCN1Cc1c(O)ccc2c(=O)c(-c3ccc(Br)cc3)coc12 (stereo not given),7,1.2,-7,2965,6,3,13
O=C(O)CCCNC(=O)CCCNC(=O)C(c1ccccc1)c1ccccc1,0,2.6,-11,2588,-4,7,-18
O=C(/C=C/c1ccccc1Cl)c1ccccc(=O)c1O,-11,20,-18,2715,8,2,26
CC(OC(=O)C1CCN(c2ccc(C(F)(F)F)cn2)CC1)C(=O)Nc1ccc(S(N)(=O)=O)cc1 (stereo not given),7,0.9,-23,6900,13,1,7
CSc1ccccc1C(=O)NC1CCCN(Cc2ccccc2F)C1 (stereo not given),4,-2.8,-2,4511,-3,7,-12
O=S(=O)(c1ccc(-n2cnnn2)cc1)N1CCNCC1,nt,nt,-18,5143,nt,nt,-6
O=C(Nc1cccc([N+](=O)[O-])c1)C1CC(=O)N(C2CCCCC2)C1 (stereo not given),-1,4.9,-24,4389,14,6,-5
Cc1ccccc1CC1(CO)CCCN(Cc2nc(-c3cccs3)oc2C)C1 (stereo not given),3,3.9,-15,3159,14,10,9
CC(NC(=O)c1ccc(F)cc1)c1nc2ccccc2n1Cc1ccccc1F (stereo not given),-8,2.4,-13,26278*,-6,-8,0
Cc1cc(NC2C3CC4CC(C3)CC2C4)n2nnnc2n1 (stereo not given),-2,2.9,-19,8874,1,8,3
CCC(C)Sc1ccc(C2C3C(=O)N(CC)C(=O)C3[C@]3(C(=O)OC)CCCCN23)cc1 (stereo not given in full),0&0,-4.5&11,nt,nt,6&15,12&7,nt
O=Cc1c(NCCN2CCOCC2)c2ccccc2[nH]c1=O,5,1.2,-18,3543,-1,6,-19
Nc1ccnc(C(F)(F)F)c1C(=O)c1ccccc1,6,1.0,-26,2226,nt,nt,7
Cc1ccc(OCc2nnc(N)s2)cc1C,3,5.8,nt,4252,20,9,-2
COc1ccccc1NC(=O)Cn1cncc1-c1ccc([N+](=O)[O-])cc1,0,-1.9,-41,2401,nt,nt,-6
COC(=O)Cc1c(O)ccn(Cc2cccc3ccccc23)c1=O,-2,6.6,-1,21316*,6,4,3
O=C(NCc1ccccc1Cl)C(=O)c1c[nH]c2ccccc12,-5,-3.8,-3,2271,-8,3,3
Cc1cccc(NC(=O)CSc2nc(C)c(Cc3ccccc3)c(=O)[nH]2)c1C,1,5.1,nt,nt,7,15,7
CCn1c(SCC(=O)Nc2ccc3[nH]c(=O)[nH]c3c2)nnc1-c1ccccc1,5,2.0,-17,4941,-2,4,7
CCOC(=O)c1cc(NC(=O)N(C(C)C)C2CCCCC2)c(C)nc1C,2,0.5,-9,2869,-1,-1,-3
COc1ccc(NC(=O)C(=O)N/N=C/c2cc(C)n(-c3cccc(Cl)c3Cl)c2C)c(OC)c1,nt,nt,-12,5604,nt,nt,-4
O=C1CN=C(c2ccccc2)c2oc3ccc(Br)cc3c2N1,-4,9.4,-20,5796,3,16,-3
O=C(O)c1ccc(S(=O)(=O)c2ccc3c(c2)C(=O)N(c2ccc(O)cc2)C3=O)cc1,8,5.3,-40,4171,1,1,2
O=C(CN(Cc1ccccc1)C(=O)c1ccco1)NCc1ccc(F)cc1,2,0.5,-27,3504,nt,nt,1
Cc1ccc(S(=O)(=O)N2CCCN(C(=O)CNC(=O)c3cccc(C)c3)CC2)cc1,5,0.6,-3,9030,-7,4,nt
O=C(NNc1ccccc1)C(CCO)C(=O)NNc1ccccc1,4,8.0,-24,4637,10,2,0
